Screens from PubChem.
Cruzain inh Det: qHTS Assay for Promiscuous and Specific Inhibitors of Cruzain (with detergent) | Potency, µM, for inactives: max response, negative = inhibition, usual class: inhibitors | 200,000 tested, 0.43% active | Cruzipain (Trypanosoma cruzi), P25779 | purified cruzain, Z-FR-AMC fluorescence, 0.01% Triton;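 also: plate controls were neutral wells for no effect and buffer without enzyme for full effect; nearly all actives have a fitted effect of over 40% in size; top concentration of the series not given in the record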
Target sequence (P25779 123-467 limits assumed): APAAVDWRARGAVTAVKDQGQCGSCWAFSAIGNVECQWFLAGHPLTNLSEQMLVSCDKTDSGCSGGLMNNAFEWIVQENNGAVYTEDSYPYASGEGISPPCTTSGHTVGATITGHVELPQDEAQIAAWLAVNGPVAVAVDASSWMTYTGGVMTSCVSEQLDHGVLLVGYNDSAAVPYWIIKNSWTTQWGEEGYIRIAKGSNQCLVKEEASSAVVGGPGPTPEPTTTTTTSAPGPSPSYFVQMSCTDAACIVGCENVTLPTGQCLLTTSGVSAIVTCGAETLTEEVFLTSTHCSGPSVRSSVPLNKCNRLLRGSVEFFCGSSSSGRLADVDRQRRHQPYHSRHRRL
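Purified cruzain (1.5 nM final) was preincubated with compounds for 15 min at room temperature in 100 mM sodium acetate pH 5.5, 5 mM DTT, 0.01% Triton X-100. Reaction started with 2 uM Z-FR-AMC; AMC fluorescence change over 60 s gave activity.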
RE007 growth inh: qHTS Assay for Inhibitors of the HIV-1 protein Vpr. S. pombe RE007 Vpr strain, BacTiter-Glo ATP luminescence, 24 h; control for the full effect not named in the record. Potency, µM (series often up to 92.2 µM), inactives show at the highest dose activity change, negative = less growth. 360,000 tested, 0.21% active; active = well fitted falling curve with a large enough effect; inconclusive = small, poorly fitted or top-dose-only effect; inactive = no such curve, though single readings can be large or run the other way;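 also: % is scaled to controls: 0 for no effect and ±100 for the full control effect; nearly all actives have a fitted effect of over 50% in size; the assay follows cell death caused by Vpr and the record does not say whether a fall means rescue or toxicity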
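Fission yeast strain RE007, carrying one chromosomally integrated HIV-1 vpr copy, was seeded at OD 0.01 in PMG+AL medium with 23 nL pinned compound. After 24 h at 30 °C and 99% humidity, viability was read by BacTiter-Glo luminescence.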
Lassa entry inh: qHTS for Inhibitors of binding or entry into cells for Lassa Virus; 300,000 tested, 1.2% active; Lassa virus pseudotype entry inhibition, cell reporter; control for the full effect not named in the record; Potency, µM (series often up to 37.9 µM), for inactives: at the highest dose activity change, negative = inhibition, actives largely listed as inhibitors; active means well fitted inhibition curve with a large enough effect; inconclusive means small, poorly fitted or top-dose-only effect, or effect the other way; inactive means flat fitted curve, though single readings scatter; tested in HEK293 cells; also: % is scaled to controls: 0 for no effect and ±100 for the full control effect; nearly all actives have a fitted effect of over 50% in size; luciferase read-out
Cruzain noTriton: qHTS Assay for Promiscuous and Specific Inhibitors of Cruzain (without detergent); Potency, µM, for the others: max response, negative = inhibition, most hits filed as inhibitors; purified cruzain, Z-FR-AMC fluorescence, no detergent; 200,000 tested, 2.3% active;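 also: plate controls were enzyme without inhibitor for no effect and buffer without enzyme for full effect; nearly all actives have a fitted effect of over 40% in size; top concentration of the series not given in the record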
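Detergent-free condition (0.00005% Triton X-100) in acetate buffer pH 5.5 with DTT. 1.5 nM enzyme and compound were pre-mixed 15 min, then 2 uM Z-FR-AMC substrate added; reaction progress from fluorescence change between first and third reads (60 s).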
NS1 inh: qHTS Assay for Inhibitors of Influenza NS1 Protein Function. AID 2326, 2010. 270,000 tested, 0.4% active. Potency, µM (titrated, usually from 46.1 µM), for inactives: at the highest dose activity, positive = more growth. S. cerevisiae slowed by influenza A NS1, growth recovery by OD600; active means well fitted rising curve with a large enough effect; inconclusive means small, poorly fitted or top-dose-only effect; inactive means no such curve, though single readings can be large or run the other way; also: nearly all actives have a fitted effect of over 50% in size
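Recovery from NS1-induced slow growth read by OD600 in budding yeast switched to galactose assay medium (pH 6.0, -URA) at 1:100 dilution. Compound 23 nl per well; the matching strain lacking NS1 serves as control.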
StopGo reporter: High Throughput Screening for Foot and Mouth Disease Virus Antivirals. human cells with a luciferase reporter of 2A StopGo recoding; control for the full effect not named in the record. Potency, µM (titrated, usually from 57.9 µM), inactives show at the highest dose signal change, negative = less light. 410,000 tested, 1.2% active; active = well fitted falling curve with a large enough effect; inconclusive = small, poorly fitted or top-dose-only effect; inactive = no such curve, though single readings can be large or run the other way; tested in HEK293T cells; also: % is scaled to controls: 0 for no effect and ±100 for the full control effect; nearly all actives have a fitted effect of over 45% in size; luciferase light after 4 h
MARV entry inh: qHTS for inhibitors of binding or entry into cells for Marburg Virus; Marburg virus pseudotyped entry inhibition, cell reporter; control for the full effect not named in the record; about a third of the inactives were read at about 46 µM; Potency, µM (top dose mostly 37.8 µM), without a hit: top-dose activity change, negative = inhibition, actives largely listed as inhibitors; 300,000 tested, 1.8% active; AID 540276, 2011; active = well fitted inhibition curve with a large enough effect; inconclusive = small, poorly fitted or top-dose-only effect, or effect the other way; inactive = flat fitted curve, though single readings scatter; tested in HEK293 cells; about a fifth of its hits are not listed in these tables; also: % is scaled to controls: 0 for no effect and ±100 for the full control effect; luciferase read-out
SARS PLpro yeast: qHTS of Yeast-based Assay for SARS-CoV PLP. S. cerevisiae expressing SARS-CoV PLpro, growth rescue; control for the full effect not named in the record. Potency, µM (doses to about 32.9 µM), for the others: at the highest dose activity, positive = growth rescue. 330,000 tested, 0.19% active. AID 485353, 2010; active means well fitted rising curve with a large enough effect; inconclusive means small, poorly fitted or top-dose-only effect; inactive means no such curve, though single readings can be large or run the other way; also: 0% is about no effect; nearly all actives have a fitted effect of over 55% in size; growth read by luminescence after 48 h
Active calls of the source: *; u = inconclusive; x = no result given; & = joins results of further samples; [ ] = dose if it differs, or a comment. Unless noted, calls follow the shape of the dose curve; as a rule, active = well fitted curve in the direction sought with a large enough effect; inconclusive = small, poorly fitted or top-dose-only effect, or another doubt; inactive = no such curve, though single readings can be large; an effect the other way counts as inactive or inconclusive. Potency is read from the fitted curve at half-maximal effect.

SMILES | Cruzain inh Det | RE007 growth inh | Lassa entry inh | Cruzain noTriton | NS1 inh | StopGo reporter | MARV entry inh | SARS PLpro yeast
COCCNC(=O)c1ccccc1NC(=O)c1ccccc1N(C)S(C)(=O)=O | -0.2% | 13% | u | -8% | 5% | 15% | -7% | 9%
Cc1ccc(-n2nc3c([n+]2[O-])CCc2c-3no[n+]2[O-])cc1 | 7.3% | 4% | u | -12% | -8% | 5% | u | 2%
COc1cc(OC)c(C2SCCCS2)cc1OC | -1.4% | -9% | 3% | 1% | -18% | -24% | 8% | 14%
Cc1cccc(N2CCN(C(=O)c3cc4c(=O)[nH]c5ccccc5c4n3C)CC2)c1C | x | 1% | 3% | x | -36% | 32µM* | -12%&-12% | x
CCCCSCCCNC(=O)Nc1ccc(C)c(C)c1 | x | 7% | 4% | x | x | 4% | -21%[46.1 µM] | -2%
COc1ccc(C(=O)NNC(=O)c2ccncc2)cc1[N+](=O)[O-] | x | 4% | -6%[46.1 µM] | x | 5% | -3% | u | 0%
COC(CNC(=O)CCc1c(C)nc2c(-c3ccc(F)cc3)c(C)nn2c1C)OC | -0.9% | 7% | -4% | u | 3% | -24% | 12% | -3%
NC(=O)Cc1c[nH]c2cccc(O)c12 | 0.3% | -8% | -7% | -11% | 4% | -7% | -2% | 1%
Cc1ccc(/C=C/C(=O)NCc2cccs2)c(C)c1 | x | 3% | u | x | -8% | 14% | u | -2%
COc1ccc(C2=NO[C@H]3C[C@](C(=O)NC(C)C)(S(=O)(=O)c4ccccc4)C[C@@H]23)cc1 | x | -14% | x | x | 4% | 3% | x | 4%
NC(=S)NN=Cc1ccc(-c2ccc(S(=O)(=O)Nc3ncccn3)cc2)o1 | x | 0% | 4% | x | x | -14% | -2% | 1%
COc1cc(/C=C(\C#N)c2nc3ccccc3[nH]2)ccc1Oc1ccc([N+](=O)[O-])cn1 | -3.4% | 1% | -6% | u | 16% | 13% | u | 1%
Cc1ccc(NC(=O)CN(C)C(=O)c2ccccn2)cc1 | x | -10% | 3% | x | x | 7% | u | 0%
O=S(=O)(CCc1ccncc1)C1Cc2cccc3cccc1c23 (stereo not given) | x | -1% | -16%[46.1 µM] | x | u | -11% | 13%[46.1 µM] | 1%
Cc1cc(NC(=O)CCC(=O)N(c2ccccc2)C(C(=O)NC2CCCC2)c2ccccc2C)no1 (stereo not given) | x | 11% | -8% | x | 3% | -3% | -11%[46.1 µM] | 0%
O=C(COC(=O)COc1cc(Cl)c(Cl)cc1Cl)NC1CC1 | x | -3% | 31% | x | x | -17% | 1% | -6%
O=C(CS(=O)(=O)c1cn(Cc2cccc(F)c2)c2ccccc12)N1CCCCC1 | -0.9% | 7% | -25% | -1% | -3% | 8% | -29% | -2%
COc1ccc(/C=N/Nc2ccc([N+](=O)[O-])cc2S(=O)(=O)N2CCN(C)CC2)cc1 | -4.3% | 3% | 5% | 2% | 4% | -14% | -18% | 10%
FC(F)(F)c1nc2ccccc2n2c(-c3ccc(Cl)cc3Cl)nnc12 | -3.7% | 4% | 15% | -1% | 7% | -8% | 4% | 3%
CCC(=O)Nc1ccc(S(=O)(=O)N2CCc3ccccc3C2)cc1 | -4.1% | 8% | x | 1% | -97% | -13% | x | -4%
O=C(O)Cc1ccc(NC(=O)c2cnccn2)cc1 | x | 8% | 3% | x | 3% | -8% | 1% | 1%
Cc1ccc(C(=O)Nc2ccc(CC(=O)O)cc2)o1 | -3.7% | -3% | -5% | -3% | 6% | -11% | -11% | 1%
O=C(c1cc(Cl)ccc1Cl)N1CCN(Cc2ccccc2)CC1 | x | 8% | x | x | 4% | -13% | x | 2%
Cc1cc(C)cc(-n2c(C)cc(/C=N/NC(=O)c3ccncc3)c2C)c1 | x | -7% | -11%[46.1 µM] | x | 3% | -5% | 3%[46.1 µM] | 0%
CCNc1nc2[nH]c(=O)c3c(c2s1)OC(N)=C(C#N)C3c1cccs1 (stereo not given) | -1.3% | 22% | 10% | -6% | -4% | 39%[activator] | 11% | 0%

Some entries already given, limited to Cruzain inh Det, Cruzain noTriton and SARS PLpro yeast.
canonical_smiles | Cruzain inh Det | Cruzain noTriton | SARS PLpro yeast
COc1ccc(C2=NO[C@H]3C[C@](C(=O)NC(C)C)(S(=O)(=O)c4ccccc4)C[C@@H]23)cc1 | x | x | 4%
NC(=S)NN=Cc1ccc(-c2ccc(S(=O)(=O)Nc3ncccn3)cc2)o1 | x | x | 1%
COc1cc(/C=C(\C#N)c2nc3ccccc3[nH]2)ccc1Oc1ccc([N+](=O)[O-])cn1 | -3.4% | u | 1%
Cc1ccc(NC(=O)CN(C)C(=O)c2ccccn2)cc1 | x | x | 0%

Compounds shown so far that contain fluorine:
SMILES | Cruzain inh Det | RE007 growth inh | Lassa entry inh | Cruzain noTriton | NS1 inh | StopGo reporter | MARV entry inh | SARS PLpro yeast
COC(CNC(=O)CCc1c(C)nc2c(-c3ccc(F)cc3)c(C)nn2c1C)OC | -0.9% | 7% | -4% | u | 3% | -24% | 12% | -3%
O=C(CS(=O)(=O)c1cn(Cc2cccc(F)c2)c2ccccc12)N1CCCCC1 | -0.9% | 7% | -25% | -1% | -3% | 8% | -29% | -2%
FC(F)(F)c1nc2ccccc2n2c(-c3ccc(Cl)cc3Cl)nnc12 | -3.7% | 4% | 15% | -1% | 7% | -8% | 4% | 3%

Next entries follow.
SMILES | Cruzain inh Det | RE007 growth inh | Lassa entry inh | Cruzain noTriton | NS1 inh | StopGo reporter | MARV entry inh | SARS PLpro yeast
CCOC(=O)N1CCN(CC(O)COCC2=CCC3CC2C3(C)C)CC1 (stereo not given) | 4.7% | 3% | u | 4% | -16% | -17% | -3%[46.1 µM] | 3%
CC(=O)NCCc1ccc(S(=O)(=O)Nc2ccc3c(c2)OCCO3)cc1 | x | 7% | -4%[46.1 µM] | x | x | -2% | 9%[46.1 µM] | x
COc1cccc(CNC(=O)Cn2nc3c(cc2=O)CCCC3)c1OC | 0.2% | x | -4%[46.1 µM] | -6% | x | 8% | x | x
CCOc1ccc(-n2c(Cc3ccccc3)nnc2SCc2nc(-c3ccccc3OC)no2)cc1 | -9.2% | x | u | 9% | x | -10% | u | x
Cc1cc(C)n(CCCNC(=O)C(C)(C)Oc2ccc(Cl)cc2)n1 | x | -8% | -11% | x | x | -18% | -7% | 9%
COc1ccc(C(=O)N/C(=C\c2ccco2)C(=O)OCc2ccco2)cc1 | x | 1% | 12% | x | -11% | 26% | 7% | -2%
Cc1ccc(C)n1-c1ccc(C(=O)NN)cc1 | -2.4% | -2% | 1% | -4% | 23% | 2% | 3% | 9%
CCc1ccccc1NC(=O)CCN1C(=O)C2CC=CCC2C1=O (stereo not given) | x | -6% | x | x | 6% | -19% | x | -1%
COc1ccc(N(CC(=O)Nc2cccc(SC)c2)S(C)(=O)=O)cc1 | -3.2% | -14% | 0% | -1% | -30% | 37%[activator] | 22% | 0%
CCCCn1c(Cn2nc(C(=O)O)c3ccccc3c2=O)nc2cc(S(N)(=O)=O)ccc21 | x | 9% | 10%[46.1 µM] | x | -22% | 11% | u | -1%
COc1cc(C(=O)N2CCc3c([nH]c4ccccc34)C2c2ccc(C)cc2)cc(OC)c1OC (stereo not given) | -4.2% | x | u | 16% | x | -7% | x | x
COC(=O)c1ccccc1NC(=O)CN1CCC(n2nnc3cc(F)ccc32)CC1 | 0.3% | 0% | 1% | u | -6% | -14% | 4%&4% | 1%
CCC1(c2ccc(F)cc2)NC(=O)N(CC(=O)Nc2cccnc2Cl)C1=O (stereo not given) | x | -19% | -9% | x | x | -12% | 10%[46.1 µM] | 0%
O=C(c1cnc2n(c1=O)CCS2)N1CCN(c2ccc([N+](=O)[O-])cc2)CC1 | -15% | -2% | x | -11% | 6% | -16% | -1% | -5%
COc1ccc(NC(=O)CSc2nc(C)cc(C)c2C(=O)Nc2ccccc2OC)cc1 | -4.2% | x | -6%[46.1 µM] | 10% | x | 8% | -9%[46.1 µM] | x
Cc1n[nH]c(=O)nc1NCc1ccco1 | 1.0% | -5% | -15% | -8% | -4% | -1% | u | 6%
COc1ccc(-c2cc(=O)n(-c3nc4ccccc4[nH]3)[nH]2)cc1 | -4.2% | -10% | u | -23% | -26% | 12% | u | 2%
CC(=O)OCC1=C(C(=O)O)N2C(=O)C(NC(=O)CCn3nc(C(F)(F)F)c(Br)c3C3CC3)C2SC1 (stereo not given) | x | -12% | -6% | x | x | -10% | -10%[46.1 µM] | 0%
Cc1nnc(NC(=O)CSc2nc(C(C)C)nc3ccccc23)s1 | 2.7% | 13% | u | -17% | 0% | x | -23% | 1%
O=C(Nc1ccc2[nH]c(=O)[nH]c2c1)c1cc(F)c(F)cc1Cl | x | -7% | 9% | x | -4% | -21% | -1%[46.1 µM] | 4%
COc1ccc(OC)c(/C=C2\Oc3cc(OCC(=O)N4CCC(C(=O)O)CC4)ccc3C2=O)c1 | x | 0% | x | x | u | -8% | x | 2%
CCOc1cc(/C=C/C(=O)OCC(=O)NCC2CCCO2)cc(Cl)c1OC (stereo not given) | x | 0% | 13%[46.1 µM] | x | x | -5% | -12%[46.1 µM] | 6%
Cc1cc(C)c(NC(=O)CN2C(=O)c3cccnc3Oc3ccc(C)cc32)c(C)c1 | -3.1% | x | 23%[46.1 µM] | u | x | -17% | x | x
O=c1c2[nH]c3ccc(F)cc3c2ncn1CCN1CCOCC1 | -2.7% | -3% | u | -10% | 1% | 33%[activator] | -2% | -1%
O=C1CCCC/C1=C/Nc1ccc(C(=O)O)cc1 | -3.6% | 13% | -1% | -3% | -9% | 37%[activator] | u | 13%
COc1cc(C2c3c(-c4ccccc4O)n[nH]c3C(=O)N2CCO)ccc1OCc1ccccc1 (stereo not given) | -1.7% | x | u | -1% | x | -27% | u | x
